TRPML1 ag: agonists of human TRPML1 channel; Q9GZU1; TRPML1-expressing cells, Ca2+ dye fluorescence, FDSS; host cell line not named in the record; reference of the full effect not given here; activation, % (test concentration not listed); actives 0.12% (n = 410,000); AID 624414; in the data active = activation above about 50%; inconclusive = about 30% to 50%; inactive = below about 30%; further: 0% is about no effect; the text of the record puts the active cut at 80%
Target sequence (Q9GZU1 whole entry, looked up): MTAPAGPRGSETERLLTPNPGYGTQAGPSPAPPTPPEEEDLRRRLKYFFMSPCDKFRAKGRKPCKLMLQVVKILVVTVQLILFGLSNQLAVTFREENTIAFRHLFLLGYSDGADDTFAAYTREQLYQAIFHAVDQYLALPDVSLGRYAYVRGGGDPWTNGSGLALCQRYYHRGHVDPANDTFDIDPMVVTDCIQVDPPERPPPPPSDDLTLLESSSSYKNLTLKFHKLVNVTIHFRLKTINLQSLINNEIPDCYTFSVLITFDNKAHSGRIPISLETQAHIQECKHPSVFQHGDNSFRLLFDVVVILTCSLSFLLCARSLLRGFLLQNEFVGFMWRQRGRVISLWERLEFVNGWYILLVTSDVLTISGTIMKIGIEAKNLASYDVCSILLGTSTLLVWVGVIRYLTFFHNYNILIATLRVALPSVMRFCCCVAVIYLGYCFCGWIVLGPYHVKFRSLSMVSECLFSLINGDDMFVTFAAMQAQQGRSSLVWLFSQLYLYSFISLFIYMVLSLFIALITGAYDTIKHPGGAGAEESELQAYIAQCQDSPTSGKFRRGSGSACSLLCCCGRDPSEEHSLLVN
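Tet-induced TRPML1-DL cells, 1,500 per well, cultured overnight, were loaded with a no-wash Ca2+ dye for 45–90 min. Calcium fluorescence was recorded on the FDSS for 110 s after compound addition, before the EC80 agonist (4 uM 54-4) was added.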
Six1-Eya2 blk: Six1/Eya2 interaction inhibition; Q15475+O00167; AlphaScreen GST-Six1/His-Eya2 binding, biochemical; active compounds read low; control for the full effect not named in the record; activity change, % (no concentration beside the values); actives 0.56% (n = 360,000); AID 651725; in the data active = activity change below about -65%; inconclusive = about -30% to -65%; inactive = above about -30%; further: on the % scale 0 is the no-effect control and ±100 the full control effect
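AlphaScreen with GST-Six1 and His-Eya2 (5X mix: 250 nM and 500 nM), glutathione donor and nickel acceptor beads; buffer 50 mM Tris pH 8.0, 300 mM NaCl, 1 mM TCEP; 1 h at 37 C in the dark.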
CtBP-E1A blk: CtBP/E1A binding inhibition. AlphaScreen GST-E1A/His-CtBP binding, 1536-well; active compounds read low; control for the full effect not named in the record. activity change, % (concentration not given with the values). actives 0.49% (n = 340,000). AID 651724; in the data active means activity change below about -65%; inconclusive means about -30% to -65%; inactive means above about -30%; further: on the % scale 0 is the no-effect control and ±100 the full control effect
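In 5 uL wells, 23 nL compound meets equimolar GST-E1A and His-CtBP (5X stock 125 nM each) for 2 h, 37 °C. Beads (5X, 50 ug/mL) then 1 h, 37 °C, dark.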
D2 agonist: human D2 receptor agonism in beta-arrestin assay; DiscoveRx PathHunter D2 beta-arrestin, luminescence, 90 min; 100% = 57 uM dopamine signal; activation, % (no concentration beside the values); actives 0.084% (n = 360,000); P14416; AID 624465; in the data active = activation above about 40%; inconclusive = about 15% to 40%; inactive = below about 15%; further: compound concentration not given in the record; the text of the record calls up to 30% inactive
Target sequence (P14416 whole entry, looked up): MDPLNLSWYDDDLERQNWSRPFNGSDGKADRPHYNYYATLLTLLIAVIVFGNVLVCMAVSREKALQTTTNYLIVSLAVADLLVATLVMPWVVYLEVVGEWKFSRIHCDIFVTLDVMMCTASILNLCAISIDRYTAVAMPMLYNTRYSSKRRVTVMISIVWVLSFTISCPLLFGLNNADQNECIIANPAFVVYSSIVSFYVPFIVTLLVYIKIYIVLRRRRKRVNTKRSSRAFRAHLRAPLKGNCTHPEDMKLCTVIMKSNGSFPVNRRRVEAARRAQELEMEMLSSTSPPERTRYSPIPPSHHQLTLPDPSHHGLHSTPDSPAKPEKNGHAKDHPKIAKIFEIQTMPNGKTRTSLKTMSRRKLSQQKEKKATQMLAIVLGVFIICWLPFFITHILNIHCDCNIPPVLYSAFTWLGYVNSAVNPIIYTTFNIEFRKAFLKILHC
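Agonist mode: compounds alone added to overnight-plated D2 PathHunter cells for 90 min at 37 C, with 57 uM final dopamine (EC100) defining full response. Beta-arrestin recruitment detected by chemiluminescent reagent, read after 1 h at ambient temperature.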
TRPML1 inh: human mucolipin-1 channel inhibition | TRPML1-inducible cells, Ca2+ dye fluorescence, FDSS; active compounds read low; inhibition of EC80 agonist-evoked calcium signal | activity change, negative = inhibition, % (test concentration not listed) | Q9GZU1 | actives 0.02% (n = 390,000) | AID 624415; in the data active means activity change below about -50%; inconclusive means about -30% to -50%; inactive means above about -30%;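 further: stimulus is agonist 54-4 at its EC80 concentration; on the % scale 0 is the no-effect control and ±100 the full control effect; compound concentration not given in the record; the text of the record puts the active cut at -80%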
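TRPML1-DL cells, Tet-induced overnight (~16 h, 37 °C) at 1,500 cells/well, were loaded with Ca8 no-wash dye plus quencher for 45-90 min at room temperature. Compounds were pinned during FDSS kinetic reading; agonist 54-4 at EC80 (4 uM final) then added.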
PINK1 expr mod: changes PINK1 expression; Potency, µM (titrated, usually from 76.6 µM), without a hit: top-dose activation (PINK1 increase), hits mostly activators; actives 0.2% (n = 410,000); PINK1 immunofluorescence, high-content cytometry, 24 h; active = well fitted activation curve with a large enough effect; inconclusive = small, poorly fitted or top-dose-only effect; inactive = flat fitted curve, though single readings scatter; cell line not stated here;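 further: potency means the concentration at half of the fitted maximal effect; % of control where 0% means no effect; nearly all actives have a fitted effect of over 65% in size; a mitochondrial uncoupler was the plate control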
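Measures PINK1 amount and localization on or inside mitochondria by immunofluorescence. Stable cells get compounds at 5 concentrations for 24 hours before fixation and staining; CCCP controls included.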
An asterisk follows results filed as active; ? = inconclusive; . = not tested or not shown; & = joins results of further samples; [ ] = remark or other dose.

Key to letters – A = TRPML1 ag; B = Six1-Eya2 blk; C = CtBP-E1A blk; D = D2 agonist; E = TRPML1 inh; F = PINK1 expr mod
COc1ccc(NC(=O)CSCC(=O)N2CCCc3ccccc32)cc1
  A: -1.4; B: 1; C: 6; D: -2.5; E: 23; F: 3.5%
CCN(CC(=O)NCc1cccs1)C(=O)c1cccc(S(=O)(=O)N2CC(C)OC(C)C2)c1 (stereo unspecified)
  A: 0.6; B: -10; C: -16; D: -5.2; E: 10; F: 0.3%
CCOC(=O)c1c(C)[nH]c(C)c1S(=O)(=O)N(C)CC(=O)NCc1cccc(Br)c1
  A: -1.0&-0.1; B: 4; C: -4; D: -2.2; E: 2&-8; F: -0.6%&0.7%
CCOC(=O)N1CCN(S(=O)(=O)c2ccc(C(=O)Nc3nnc(C4CC4)o3)cc2)CC1
  A: -0.5; B: -11; C: -8; D: -3.4; E: -7; F: 0.9%
COc1ccccc1Oc1ccnc2cc(Cl)ccc12
  A: -0.5; B: 7; C: 5; D: -1.8; E: 5; F: 0.0%
CC(C)OC(=O)CSc1nnc(-c2cnccn2)n1-c1ccccc1
  A: -0.5; B: -3; C: 5; D: -1.7; E: -3; F: 0.0%
Cc1ccc(NC(=O)CCCc2nc3ccccc3s2)c(O)c1
  A: -0.9; B: 0; C: 1; D: 4.5; E: 2; F: -1.0%
Cc1ccc(C(C)C)c(OCC(=O)NNC(=O)Cc2ccc(S(=O)(=O)N3CCOCC3)s2)c1
  A: -0.3; B: -3; C: 0; D: 4.1; E: -9; F: -1.8%
CCCn1ncc(CN2CCC(N3CCC(C(=O)N4CCOCC4)CC3)CC2)c1C
  A: 0.9; B: -4; C: -13; D: -1.3; E: 0; F: -1.2%
Cc1ccc(S(=O)(=O)c2cn(Cc3ccccc3)c3cc(N4CCCC4)c(F)cc3c2=O)cc1C
  A: -0.8; B: .; C: .; D: .; E: -1; F: -0.5%
Cc1ccc(C)c(N(C)C(=O)CCS(=O)(=O)c2cccc3nonc23)c1
  A: 0.3; B: 8; C: 0; D: -3.7; E: 11; F: 3.9%
Cc1ccc(NS(=O)(=O)c2ccc3c(c2)NC(=O)CCS3)c(Br)c1
  A: -0.4&1.0; B: 0; C: 5; D: -1.1; E: -9&-9; F: -0.4%&-0.8%
O=C(Nc1cc(Br)ccc1O)c1cc(-c2ccccc2)on1
  A: .; B: -12; C: .; D: 5.8; E: .; F: 1.6%
COc1ccc(/C=N/Nc2ncc(-c3ccccc3)cn2)c(OC)c1
  A: 2.8; B: -1; C: -13; D: -1.5; E: 5; F: 0.1%[38.3 µM]
Cc1ccc(S(=O)(=O)NCCCCCC(=O)NC(C)(C)CO)cc1
  A: -0.8; B: 9; C: -2; D: -2.3; E: 4; F: 0.4%
COCC(=O)NC1CCN(C(=O)Nc2ccc(Br)cc2)CC1
  A: 0.3; B: 4; C: 2; D: 0.6; E: -3; F: 1.0%[38.3 µM]
CCN1CCC(N(Cc2ccc3c(c2)OCO3)C(=O)Nc2cc(F)ccc2F)CC1
  A: 1.1; B: .; C: .; D: .; E: 3; F: -1.2%
CCCc1ccc(C(=O)NNc2cccc(C)c2)cc1
  A: 1.7; B: 2; C: -2; D: -11; E: -10; F: -0.7%
NS(=O)(=O)c1ccc(NC(=S)NC2CCCCC2)cc1
  A: 1.0; B: 8; C: 13; D: -3.3; E: 1; F: 0.7%
Nc1nc(SCc2ccccc2[N+](=O)[O-])c2ncn(Cc3ccccc3)c2n1
  A: -0.3; B: -22; C: -16; D: 0.3; E: 1; F: -0.3%
CCn1cc(S(=O)(=O)N2CCN(Cc3ccc(F)cc3)CC2)cn1
  A: -1.0; B: 4; C: .; D: 6.6; E: -1; F: -0.8%
COc1ccc(CC(=O)Nc2ccc(S(=O)(=O)N3CCN(C)CC3)cc2)cc1
  A: -0.2; B: -2; C: .; D: -1.8; E: 12; F: 4.1%
Cc1ccccc1OCCN1C(=O)c2ccccc2C1=O
  A: -0.3; B: 14; C: 18; D: 2.4; E: -5; F: 0.5%[38.3 µM]
CCOc1cc(C#N)c(NC(=O)c2ccc(OC)c(S(=O)(=O)N3CCN(c4ccccc4)CC3)c2)cc1OCC
  A: 1.0; B: .; C: .; D: .; E: 15; F: 2.3%
Cc1ccc2nc(-c3ccccc3)cc(C(=O)N3CCN(S(=O)(=O)c4c(C)noc4C)CC3)c2c1
  A: 1.2; B: -5; C: 2; D: -1.8; E: -6; F: 0.1%
C#CC(C)(CC)NC(=O)c1cc2cccc(CC=C)c2oc1=O (stereo unspecified)
  A: 1.1; B: -2; C: -8; D: 1.4; E: 6; F: 1.9%
CC(C)CNc1nc(=S)nc(N(C)C)[nH]1
  A: -0.6; B: 0; C: 0; D: -0.2; E: -6; F: -2.9%[38.3 µM]
O=C(NCCCN1CCCC1=O)c1cccc(S(=O)(=O)Nc2ccccc2Cl)c1
  A: -1.1; B: -4; C: .; D: -3.5; E: 15; F: 3.2%
CC1CN(C(=O)c2cc3c(=O)n4ccccc4nc3s2)CC(C)O1 (stereo unspecified)
  A: -0.3; B: 4; C: 3; D: -0.5; E: -1; F: 0.5%[38.3 µM]
CCOc1ccccc1-c1nc(Cn2c(=O)cc(C)c3c(C)nn(-c4ccccc4)c32)c(C)o1
  A: 1.0; B: .; C: .; D: .; E: 8; F: -0.3%
Cc1nn(C)c(C)c1/C=C/C(=O)c1cccs1
  A: 0.1; B: -2; C: 3; D: -0.5; E: 1; F: 6.5%
Cc1noc(C)c1C(=O)N1CCC1(C)C(=O)NS(=O)(=O)c1ccc(C#N)cc1 (stereo unspecified)
  A: 0.0; B: 9; C: -1; D: -5.0; E: .; F: 0.2%
CCOc1ccc(CN2CCN(Cc3cccn3-c3cccnc3)CC2CCO)cc1 (stereo unspecified)
  A: 0.8; B: -9; C: -15; D: -1.7; E: -3; F: 0.9%
COc1ccccc1CNC(=O)CCS(=O)(=O)c1cccs1
  A: 0.0; B: -1; C: -7; D: 1.0; E: 12; F: -1.8%
Cc1ccc(CSC2=NCCN2S(=O)(=O)c2ccc(F)cc2)cc1
  A: 7.0; B: 13; C: 0; D: 6.1; E: 71; F: 3.0%
O=C(O)C1CSC(c2ccc(O)c([N+](=O)[O-])c2)N1 (stereo unspecified)
  A: -0.2; B: -10; C: ?; D: -0.3; E: 18; F: -0.7%
CCCCc1nc2ccccc2n1CC(=O)N(COCC)c1c(C)cccc1CC
  A: -0.2; B: .; C: .; D: .; E: 1; F: 2.3%
COc1ccccc1N1CC=C(c2cccc([N+](=O)[O-])c2)NC1=O
  A: 0.8; B: 0; C: .; D: 1.1; E: 4; F: 0.6%
COP(=O)(OC)c1nc(-c2ccc([N+](=O)[O-])cc2)oc1N1CCCCC1
  A: 16; B: -9; C: .; D: -0.6; E: -1; F: 2.5%
S=C(NCc1cccc(Cl)c1)NCc1ccco1
  A: 1.4; B: -11; C: -20; D: -2.6; E: -8; F: -0.2%
Cc1ccc(NC(=O)C2CCCCC2C(=O)O)cc1C (stereo unspecified)
  A: 0.0; B: -3; C: .; D: -2.8; E: ?; F: 0.4%
CN1CCN(C(=O)C2=C[C@@H](C3CCCCC3)C[C@@H](OCc3ccc(CO)cc3)O2)CC1
  A: 0.4; B: -4; C: 4; D: -2.0; E: 3; F: 2.1%
Cc1ccc(CN2CCC(Oc3cccc(C(=O)NCc4cccnc4)c3)CC2)o1
  A: 0.2; B: -7; C: -1; D: 1.7; E: 10; F: -1.3%
O=c1oc2ccccc2n1Cc1ccccc1Cl
  A: 1.3; B: 5; C: 7; D: -2.1; E: 12; F: 6.5%
CCN1CCN(C(C)C(=O)Nc2c(C)n(C)n(-c3ccccc3)c2=O)CC1 (stereo unspecified)
  A: 1.2; B: 5; C: 6; D: -2.7; E: -5; F: 0.9%

8 of the compounds above, with two lines to a compound:
Fields – TRPML1 ag, Six1-Eya2 blk, CtBP-E1A blk, D2 agonist, TRPML1 inh, PINK1 expr mod
COc1ccccc1N1CC=C(c2cccc([N+](=O)[O-])c2)NC1=O
→ 0.8, 0, ., 1.1, 4, 0.6%
COP(=O)(OC)c1nc(-c2ccc([N+](=O)[O-])cc2)oc1N1CCCCC1
→ 16, -9, ., -0.6, -1, 2.5%
S=C(NCc1cccc(Cl)c1)NCc1ccco1
→ 1.4, -11, -20, -2.6, -8, -0.2%
Cc1ccc(NC(=O)C2CCCCC2C(=O)O)cc1C (stereo unspecified)
→ 0.0, -3, ., -2.8, ?, 0.4%
CN1CCN(C(=O)C2=C[C@@H](C3CCCCC3)C[C@@H](OCc3ccc(CO)cc3)O2)CC1
→ 0.4, -4, 4, -2.0, 3, 2.1%
Cc1ccc(CN2CCC(Oc3cccc(C(=O)NCc4cccnc4)c3)CC2)o1
→ 0.2, -7, -1, 1.7, 10, -1.3%
O=c1oc2ccccc2n1Cc1ccccc1Cl
→ 1.3, 5, 7, -2.1, 12, 6.5%
CCN1CCN(C(C)C(=O)Nc2c(C)n(C)n(-c3ccccc3)c2=O)CC1 (stereo unspecified)
→ 1.2, 5, 6, -2.7, -5, 0.9%

Remaining list, next part:
Key to letters – A = TRPML1 ag; B = Six1-Eya2 blk; C = CtBP-E1A blk; D = D2 agonist; E = TRPML1 inh; F = PINK1 expr mod
CCOC(=O)NC(=O)CSc1ccc(S(=O)(=O)N2CCCCC2)cn1
  A: 1.6; B: -4; C: .; D: 3.5; E: 55; F: 0.5%
COc1ccc(-c2csc3ncnc(N4CCN(c5ccccc5Cl)CC4)c23)cc1
  A: -0.5; B: -17; C: -2; D: -1.1; E: -10; F: 7.0%
COC(=O)c1ccccc1NC(=O)NN1CCN(C)CC1
  A: -0.3; B: 3; C: 6; D: -0.2; E: 0; F: -0.5%
COc1cc(CNCc2c(C(=O)O)c(C)n(Cc3cccc(Cl)c3)c2C)cc(OC)c1OC
  A: 0.6; B: .; C: .; D: .; E: -6; F: 1.8%
CC1=NN(c2ccccc2)C(=O)/C1=C\C=C\c1ccccc1
  A: 2.5; B: -2; C: 5; D: -0.7; E: -7; F: 2.8%
CCC(C)NC(=O)CN1c2cccc3cccc(c23)S1(=O)=O (stereo unspecified)
  A: -0.1; B: 5; C: .; D: 9.3; E: 1; F: 1.1%
Cc1ccc(-c2cc(C(=O)Nc3ccc(S(=O)(=O)Nc4onc(C)c4C)cc3)c3ccccc3n2)cc1
  A: 0.0; B: 3; C: -15; D: -3.9; E: 15; F: 0.1%
CCCn1c(NC(=O)c2ccco2)nc2ccccc21
  A: -0.2; B: -8; C: 9; D: -2.3; E: -2; F: .
CCCCNC(=O)C1(C)CCCCN1C(=O)c1cc(C)n(C(C)(C)C)n1 (stereo unspecified)
  A: -0.5; B: 4; C: 7; D: -4.1; E: 22; F: 0.1%
COC(=O)COc1ccc(S(=O)(=O)N2CCN(c3ccccc3F)CC2)cc1C
  A: 4.6; B: -1; C: 0; D: -3.4; E: 6; F: ?
COc1cc2c(cc1OC)C(c1ccc(O)cc1)NCC2 (stereo unspecified)
  A: 0.4; B: 9; C: -1; D: -1.6; E: 6; F: -0.8%

Entries of single compounds, quoted from the list. Values in the order: TRPML1 ag, Six1-Eya2 blk, CtBP-E1A blk, D2 agonist, TRPML1 inh, PINK1 expr mod
CCC(C)NC(=O)CN1c2cccc3cccc(c23)S1(=O)=O (stereo unspecified) across the screens: -0.1, 5, ., 9.3, 1, 1.1%
COC(=O)c1ccccc1NC(=O)NN1CCN(C)CC1 across the screens: -0.3, 3, 6, -0.2, 0, -0.5%
